CBX7 inh: CBX7 inhibition, primary AlphaScreen; O95931; AlphaScreen His6-CBX7 / biotin-H3K27me3 peptide binding; active compounds read low; normalised signal (fraction of DMSO) (test concentration not listed); hit rate 1.1% among 66,000; AID 1224903; in the data active means normalised signal below about 0.5;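 further: 100 nL library stock added to about 20 µL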
Target sequence (O95931 whole entry, looked up): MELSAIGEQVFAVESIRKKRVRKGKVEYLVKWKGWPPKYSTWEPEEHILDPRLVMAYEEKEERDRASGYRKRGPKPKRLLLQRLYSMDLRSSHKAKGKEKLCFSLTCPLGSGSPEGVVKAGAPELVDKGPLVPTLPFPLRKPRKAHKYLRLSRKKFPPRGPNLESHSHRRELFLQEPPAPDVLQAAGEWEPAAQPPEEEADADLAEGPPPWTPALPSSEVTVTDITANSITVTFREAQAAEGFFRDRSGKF
CBX7 inh z-score: recorded beside CBX7 inh, whose call it bears; z-score; measured here: z-score of CBX7 signal; some inactives read as strong as hits; reference of the scale not given here;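 same signal on another scale; lower means less binding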
* marks the source's active call; other numbers are inactive results.

How did Cc1cccc(CCNC(=O)CN(C)S(=O)(=O)c2ccc3nc(C)sc3c2)c1 do in these assays?
CBX7 inh: 1.01; CBX7 inh z-score: 0.0802

What do the screens show for `O=C(NC1CCCc2ccccc21)C1CCN(S(=O)(=O)c2cccc3cccnc23)CC1` (stereo not given)?
CBX7 inh: 0.899; CBX7 inh z-score: -1.26

Results for CC1CCCN(CCCNS(=O)(=O)c2cc(Br)cc3c2N(C(=O)C2CC2)CC3)C1 (stereo not given) ?
CBX7 inh: 1.27; CBX7 inh z-score: 3.53

What do the screens show for `Nc1nonc1-c1noc(-c2sc3ccccc3c2Cl)n1`?
CBX7 inh: 1.09; CBX7 inh z-score: 2.5

Results for CCC(=O)N1CCc2cc(S(=O)(=O)N3CCN(c4ccccc4F)CC3)ccc21 ?
CBX7 inh: 0.985; CBX7 inh z-score: -0.3

How did O=C(NCc1ccc(F)cc1)c1cccc2c1C(=O)N(C1CCCCC1)C2 do in these assays?
CBX7 inh: 1.01; CBX7 inh z-score: 0.276

What do the screens show for `Cc1cccc(C)c1Nc1c(-c2ccccc2Cl)nc2cnccn12`?
CBX7 inh: 0.989; CBX7 inh z-score: -0.122

What do the screens show for `CCOC(=O)c1sc(NC(=O)c2ccc(OC)c(OC)c2)nc1C`?
CBX7 inh: 1.05; CBX7 inh z-score: 0.936

What do the screens show for `CCCCCCC(O)(CCN1CCCCC1)c1ccc(OCC)cc1` (stereo not given)?
CBX7 inh: 1.1; CBX7 inh z-score: 2.64

How did COc1cccc(-c2nn(C)c3sc(C(=O)Nc4ccc(C(C)C)cc4)cc23)c1 do in these assays?
CBX7 inh: 0.965; CBX7 inh z-score: -0.983

What do the screens show for `O=C(C1=CCN(S(=O)(=O)c2ccccc2)CC1)N1CCCC1`?
CBX7 inh: 0.985; CBX7 inh z-score: -0.739

Results for Cc1ccc(NC(=O)CCc2nnc3ccc(N4CCC(Cc5ccccc5)CC4)nn23)cc1 ?
CBX7 inh: 0.728; CBX7 inh z-score: -6.15

Results for O=C(Nc1cccnc1)c1cc(-c2ccc3c(c2)OCO3)on1 ?
CBX7 inh: 1.06; CBX7 inh z-score: 1.71

Results for Cc1nc2cc(NC(=O)CN3C(=O)c4ccccc4C3=O)ccc2n1-c1ccccc1 ?
CBX7 inh: 0.81; CBX7 inh z-score: -0.214

How did CCN1CCN(C(c2cccs2)C(C)NS(=O)(=O)c2ccc(Cl)cc2)CC1 (stereo not given) do in these assays?
CBX7 inh: 0.965; CBX7 inh z-score: -0.844

Results for COCCCNC(=O)C1=CCN(S(=O)(=O)c2ccc(C)cc2)CC1 ?
CBX7 inh: 1.17; CBX7 inh z-score: 1.84

Results for COc1cccc(NS(=O)(=O)c2ccc3[nH]cc(C(=O)N4CCCC4)c(=O)c3c2)c1 ?
CBX7 inh: 1.01; CBX7 inh z-score: 0.122

Results for O=C(NCc1ccccc1)C1=CCN(S(=O)(=O)c2ccc(Br)cc2)CC1 ?
CBX7 inh: 1.05; CBX7 inh z-score: 2.07

Results for COc1cccc(Nc2ncccc2C(=O)Nc2ccc(F)cc2)c1 ?
CBX7 inh: 0.912; CBX7 inh z-score: -3.12

Results for Cc1ccc(Cn2c(COc3ccc(Cl)cc3)nc3ccccc32)cc1 ?
CBX7 inh: 0.866; CBX7 inh z-score: -1.46

Results for COc1ccc(CCNC(=O)C2CC(=O)N(c3ccc(Br)cc3)C2)cc1OC (stereo not given) ?
CBX7 inh: 1.31; CBX7 inh z-score: 3.51

What do the screens show for `Cc1ccc2nsnc2c1NC(=O)C(c1ccccc1)c1ccccc1`?
CBX7 inh: 1.24; CBX7 inh z-score: 1.6

Results for CCOc1ccc(NC(=O)Cc2ccc(NC3=NC4CS(=O)(=O)CC4S3)cc2)cc1 (stereo not given) ?
CBX7 inh: 1.13; CBX7 inh z-score: 1.37

Results for O=c1c2ccccc2nc(/C=C/c2ccc(O)cc2)n1CCCO ?
CBX7 inh: 0.937; CBX7 inh z-score: -0.0625

What do the screens show for `COc1ccc(CN2C(=O)CN(C3CCCCCC3)C(=O)C2c2ccc(C)cc2)cc1` (stereo not given)?
CBX7 inh: 1.06; CBX7 inh z-score: 0.59

What do the screens show for `c1ccc(Cc2nnc3sc(C4COc5ccccc5O4)nn23)cc1` (stereo not given)?
CBX7 inh: 1.06; CBX7 inh z-score: 1.72

How did CC(=O)N1CCc2cc(S(=O)(=O)NCCC(=O)NCc3ccccc3Cl)ccc21 do in these assays?
CBX7 inh: 0.876; CBX7 inh z-score: -2.3

How did CCCN1CCN(C(=O)CC2Oc3ccccc3NC2=O)CC1 (stereo not given) do in these assays?
CBX7 inh: 1.04; CBX7 inh z-score: 0.242

How did Cn1nnc(NCc2cc(Br)ccc2OCc2ccccc2F)n1 do in these assays?
CBX7 inh: 0.931; CBX7 inh z-score: -0.797

What do the screens show for `Cc1cc(N2CCN(C3CCCCC3)CC2)nc2cc(O)ccc12`?
CBX7 inh: 0.99; CBX7 inh z-score: -0.418

How did CCC(=O)N1CCc2cc(S(=O)(=O)NCCC(=O)Nc3ccc4c(c3)OCO4)ccc21 do in these assays?
CBX7 inh: 0.857; CBX7 inh z-score: -2.69

Results for CCN(CC)S(=O)(=O)c1ccc(-c2csc(-c3cccnc3)n2)cc1 ?
CBX7 inh: 1.06; CBX7 inh z-score: 1.55

Results for Cc1oc2c(CN3CCCC(C)C3)c(O)ccc2c(=O)c1-c1nc2ccccc2s1 (stereo not given) ?
CBX7 inh: 1.07; CBX7 inh z-score: 1.85

How did Cc1ccc(CC2CC(=O)N(c3ccc(C)c(Br)c3)C2=O)cc1 (stereo not given) do in these assays?
CBX7 inh: 1.21; CBX7 inh z-score: 2.43

How did Cc1cc(C(=O)Nc2cc(F)ccc2F)n(-c2ccccc2)n1 do in these assays?
CBX7 inh: 1.11; CBX7 inh z-score: 3.56

What do the screens show for `CCOC(=O)c1ccc(NCc2nc3ccccc3n2C)cc1`?
CBX7 inh: 0.947; CBX7 inh z-score: -0.96

What do the screens show for `CN(C)C(CNC(=O)Nc1ccccc1)c1cccnc1` (stereo not given)?
CBX7 inh: 0.995; CBX7 inh z-score: -0.0418

What do the screens show for `COC(=O)c1cc2c(cc1NC(=O)c1cc3sc(Cl)cc3n1C)OCO2`?
CBX7 inh: 0.946; CBX7 inh z-score: -2.15

How did O=C1CN(C(=O)Cc2ccc(F)cc2)C(c2ccccc2)c2cc(Cl)ccc2N1 (stereo not given) do in these assays?
CBX7 inh: 0.702; CBX7 inh z-score: -2.85

How did O=C(Nc1ccc(Br)cc1)c1cc(-c2cccc(Cl)c2)on1 do in these assays?
CBX7 inh: 0.877; CBX7 inh z-score: -1.7

How did O=C(Cn1nc(-c2ccccc2)ccc1=O)NCCc1ccccc1 do in these assays?
CBX7 inh: 1; CBX7 inh z-score: 0.0415

Results for Cc1cc(C)nc(Nc2ncc(O)n2-c2ccc(F)cc2)n1 ?
CBX7 inh: 1.2; CBX7 inh z-score: 0.7

How did CCN(CCCNC(=O)CN1CCN(Cc2ccccc2Cl)C1=O)c1cccc(C)c1 do in these assays?
CBX7 inh: 0.99; CBX7 inh z-score: -0.136

What do the screens show for `O=C(NC1CCN(Cc2ccccc2)CC1)C1(c2ccccc2)CCCC1`?
CBX7 inh: 1.06; CBX7 inh z-score: 1.74

How did CCOc1ccc(-n2ccnc2SCC(=O)Nc2ccc(C)cc2)cc1 do in these assays?
CBX7 inh: 0.517; CBX7 inh z-score: -0.641

Compounds shown so far with four or more nitrogen atoms:
What do the screens show for `Nc1nonc1-c1noc(-c2sc3ccccc3c2Cl)n1`?
CBX7 inh: 1.09; CBX7 inh z-score: 2.5

What do the screens show for `Cc1cccc(C)c1Nc1c(-c2ccccc2Cl)nc2cnccn12`?
CBX7 inh: 0.989; CBX7 inh z-score: -0.122

Results for Cc1ccc(NC(=O)CCc2nnc3ccc(N4CCC(Cc5ccccc5)CC4)nn23)cc1 ?
CBX7 inh: 0.728; CBX7 inh z-score: -6.15

Results for Cc1nc2cc(NC(=O)CN3C(=O)c4ccccc4C3=O)ccc2n1-c1ccccc1 ?
CBX7 inh: 0.81; CBX7 inh z-score: -0.214

What do the screens show for `c1ccc(Cc2nnc3sc(C4COc5ccccc5O4)nn23)cc1` (stereo not given)?
CBX7 inh: 1.06; CBX7 inh z-score: 1.72

How did Cn1nnc(NCc2cc(Br)ccc2OCc2ccccc2F)n1 do in these assays?
CBX7 inh: 0.931; CBX7 inh z-score: -0.797

What do the screens show for `CN(C)C(CNC(=O)Nc1ccccc1)c1cccnc1` (stereo not given)?
CBX7 inh: 0.995; CBX7 inh z-score: -0.0418

Results for Cc1cc(C)nc(Nc2ncc(O)n2-c2ccc(F)cc2)n1 ?
CBX7 inh: 1.2; CBX7 inh z-score: 0.7

How did CCN(CCCNC(=O)CN1CCN(Cc2ccccc2Cl)C1=O)c1cccc(C)c1 do in these assays?
CBX7 inh: 0.99; CBX7 inh z-score: -0.136

The main list resumes, starting two compounds before the break.
What do the screens show for `O=C(NC1CCN(Cc2ccccc2)CC1)C1(c2ccccc2)CCCC1`?
CBX7 inh: 1.06; CBX7 inh z-score: 1.74

How did CCOc1ccc(-n2ccnc2SCC(=O)Nc2ccc(C)cc2)cc1 do in these assays?
CBX7 inh: 0.517; CBX7 inh z-score: -0.641

How did Cc1ccc(Oc2nc(-c3ccncc3)nc3ccccc23)cc1 do in these assays?
CBX7 inh: 1.13; CBX7 inh z-score: 1.43

What do the screens show for `Cc1ccn2c(NC(=O)c3ccc4c(c3)OCO4)c(-c3ccccc3)nc2c1`?
CBX7 inh: 0.934; CBX7 inh z-score: -2.12

Results for CCN(CC)S(=O)(=O)c1cccc(-c2cn3cc(C)ccc3n2)c1 ?
CBX7 inh: 0.971; CBX7 inh z-score: -1.02

How did Cc1ccc(Cc2c(C)nc3c(C(=O)NCC4CCCO4)cnn3c2C)cc1 (stereo not given) do in these assays?
CBX7 inh: 1.02; CBX7 inh z-score: 0.585

Results for COc1ccc(CCN2C(=O)CCC2(C)C(=O)NC2CCCCCC2)cc1OC (stereo not given) ?
CBX7 inh: 1.06; CBX7 inh z-score: 1.11

Results for CC(NC(=O)CN1C(=O)COc2ccc(C(C)(C)C)cc21)c1ccccc1 (stereo not given) ?
CBX7 inh: 0.863; CBX7 inh z-score: -2.36

Results for CCOc1ccc(-c2cc(C(=O)O)c3ccccc3n2)cc1 ?
CBX7 inh: 0.99; CBX7 inh z-score: -0.0656

Results for CC1CCN(C(=O)CSc2nnc(-c3ccc4c(c3)OCCO4)o2)CC1 ?
CBX7 inh: 1.05; CBX7 inh z-score: 0.351

What do the screens show for `CCN(CCNC(=O)CN1C(=O)CC(C)(C)Sc2ccccc21)c1ccccc1`?
CBX7 inh: 0.92; CBX7 inh z-score: -2.35

What do the screens show for `CCCCNC(=O)NC1C2CC3CC(C2)CC1C3` (stereo not given)?
CBX7 inh: 0.928; CBX7 inh z-score: -1.16

Results for Cc1ccc(C)c(CN2C(=O)CSc3ccc(C(=O)NC(C)C)cc32)c1 ?
CBX7 inh: 0.998; CBX7 inh z-score: -0.0469

How did Cc1c(C(=O)Nc2c(F)cccc2F)sc2ncn(CC(=O)N3CC(C)CC(C)C3)c(=O)c12 (stereo not given) do in these assays?
CBX7 inh: 0.951; CBX7 inh z-score: -1.3

What do the screens show for `CCOc1ccccc1NC(=O)CSc1nccn1-c1ccccc1`?
CBX7 inh: 0.727; CBX7 inh z-score: -5.89

What do the screens show for `COc1cccc(OC)c1C(=O)Nc1nc2ccc(S(C)(=O)=O)cc2s1`?
CBX7 inh: 1.04; CBX7 inh z-score: 1.14

Results for OC(CC#CCN1CCCC1)(c1ccccc1)C1CCCCC1 (stereo not given) ?
CBX7 inh: 0.798; CBX7 inh z-score: -2.87

How did Cc1ccc2c(c1)-c1c(cnn1CC(=O)NC1CCN(Cc3ccccc3)CC1)CO2 do in these assays?
CBX7 inh: 0.961; CBX7 inh z-score: -1.03

Results for Nc1ccc(Nc2nc(-c3ccccc3)cs2)cc1 ?
CBX7 inh: 0.61; CBX7 inh z-score: -9.65

How did CCOc1nc(-c2ccccc2Cl)nc2ccccc12 do in these assays?
CBX7 inh: 1.08; CBX7 inh z-score: 1.91

How did COc1ccc(-c2cc3ccccc3n2CC(O)CN2CCCCC2C)cc1 (stereo not given) do in these assays?
CBX7 inh: 0.965; CBX7 inh z-score: -1.12

How did O=C(c1ccccc1)N1CCn2c3c(c4cc(C5CCCCC5)ccc42)CCCC31 (stereo not given) do in these assays?
CBX7 inh: 0.695; CBX7 inh z-score: -5.22

Results for Cc1ccc(-c2nnc(N3CCN(S(=O)(=O)c4ccc(C)cc4)CC3)c3ccccc23)cc1 ?
CBX7 inh: 0.908; CBX7 inh z-score: -0.821

How did CCC(C)N1C(=O)CCC1C(=O)NCc1ccc2c(c1)OCO2 (stereo not given) do in these assays?
CBX7 inh: 1.16; CBX7 inh z-score: 1.89

How did COc1cc2[nH]cc(S(=O)(=O)c3ccc(F)cc3)c(=O)c2cc1OC do in these assays?
CBX7 inh: 1.02; CBX7 inh z-score: 0.938

Results for COc1ccc(OCc2nc(C#N)c(N3CCCCCC3)o2)cc1 ?
CBX7 inh: 0.582; CBX7 inh z-score: -2.61

Results for CC1(C(=O)NCc2cccnc2)CCC(=O)N1Cc1ccc(F)cc1Cl (stereo not given) ?
CBX7 inh: 1.01; CBX7 inh z-score: 0.382

From PubChem BioAssay

Some of the compounds tested; count on the stated rates, not on these rows.
